# ALR H2O2 inh: blocks human ALR sulfhydryl oxidase activity. purified ALR, DTT oxidation, H2O2 HRP-luminol luminescence. inhibition, % (no concentration beside the values). hit rate 3.8% among 290,000. AID 485317;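 active = mean and each replicate at 75% or more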;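 note: stock transfer was 7.5 nL into about 7.5 µL; 0% = neutral wells and 100% = wells with inactivated enzyme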
# B2AR ag: human beta-2 adrenergic receptor agonism by FAP; P07550; Am2.2-beta2AR cells, FAP receptor internalization, flow cytometry; reference of the scale not given here; response, % (concentration not given with the values); hit rate 0.43% among 340,000; AID 504454;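 active = response above a set limit, near 3 SD of response in nonfluorescent compounds, cut at about 42% in these data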;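 note: stock transfer was 100 nL into about 11 µL; a reference agonist was the positive control; negative values mostly stem from fluorescent compounds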
# Target sequence (P07550 whole entry, looked up): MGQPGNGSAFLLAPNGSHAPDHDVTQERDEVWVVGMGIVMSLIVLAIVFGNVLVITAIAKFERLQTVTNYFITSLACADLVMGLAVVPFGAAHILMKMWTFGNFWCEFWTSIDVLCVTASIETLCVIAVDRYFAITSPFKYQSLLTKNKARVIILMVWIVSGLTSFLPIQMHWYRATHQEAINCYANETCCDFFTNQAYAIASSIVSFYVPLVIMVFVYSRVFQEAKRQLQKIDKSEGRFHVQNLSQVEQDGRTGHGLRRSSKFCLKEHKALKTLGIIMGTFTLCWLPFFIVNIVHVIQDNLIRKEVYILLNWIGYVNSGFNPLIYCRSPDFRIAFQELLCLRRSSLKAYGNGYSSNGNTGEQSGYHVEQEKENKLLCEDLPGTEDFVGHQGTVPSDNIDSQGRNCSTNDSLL
# Ecoli growth: inhibitors of Escherichia coli growth. OD600, 23 h; hits give low values. OD600 absorbance (no concentration beside the values). hit rate 0.21% among 330,000. AID 1053175;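 active = OD600 absorbance below the run mean of sample wells minus 3.6 SD, in any replicate, cut at about 0.56 in these data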;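 note: stock transfer was 300 nL into about 60 µL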
# FGF22 binding: FGF22 (human) thermal shift binding | Q9HCT0 | recombinant FGF22 thermal shift, SYPRO orange fluorescence; percent of sucrose octasulfate shift, DMSO zero | calls only at 9.99 µM | AID 651658 | hit rate 1.5% among 340,000;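 active = melting point raised past a set limit in the mean and every replicate; three in four hits are not shown here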
# Target sequence (Q9HCT0 whole entry, looked up): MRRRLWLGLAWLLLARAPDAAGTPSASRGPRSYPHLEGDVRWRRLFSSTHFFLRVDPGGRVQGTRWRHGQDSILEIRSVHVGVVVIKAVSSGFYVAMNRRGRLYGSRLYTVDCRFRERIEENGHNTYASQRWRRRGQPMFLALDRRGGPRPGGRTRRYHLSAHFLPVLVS
# HNF4A DNA FP: change in binding of human HNF4 alpha to DNA | P41235 | HNF4a-FITC DNA binding, fluorescence polarization, 1 h | activity change, % at 10 µM | hit rate 0.3% among 360,000; in the data active = activity change above about 30%, passing the limit was not always enough;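 note: controls were the assay level and a saturating level of protein; the project sought stronger binding though the title names inhibitors; some compounds called inactive have numbers as strong as hits; positive values seem to mean higher polarization but the record does not say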
# Target sequence (P41235 whole entry, looked up): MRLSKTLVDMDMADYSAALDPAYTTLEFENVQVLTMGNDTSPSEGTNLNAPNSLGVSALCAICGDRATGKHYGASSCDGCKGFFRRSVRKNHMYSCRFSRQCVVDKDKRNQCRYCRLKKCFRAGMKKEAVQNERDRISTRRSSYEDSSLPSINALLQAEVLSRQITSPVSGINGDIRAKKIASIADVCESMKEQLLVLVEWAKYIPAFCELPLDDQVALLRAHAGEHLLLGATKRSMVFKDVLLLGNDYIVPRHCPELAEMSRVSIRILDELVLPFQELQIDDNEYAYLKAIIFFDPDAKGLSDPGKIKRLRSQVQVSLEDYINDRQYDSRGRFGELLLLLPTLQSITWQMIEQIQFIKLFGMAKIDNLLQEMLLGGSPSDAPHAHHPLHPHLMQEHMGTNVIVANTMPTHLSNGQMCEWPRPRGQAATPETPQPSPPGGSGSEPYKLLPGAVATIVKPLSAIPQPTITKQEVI
# UCH37 DUB inh: blocks the human deubiquitinase UCH37; Q9Y5K5; purified proteasome/UCH37, Ub-AMC cleavage fluorescence; inhibition, % (test concentration not listed); hit rate 0.33% among 330,000; AID 588478;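 active = mean of two replicates above 20%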;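 note: 0% = compound-free wells with enzyme and 100% = wells lacking proteasome; stock transfer was 100 nL into about 20 µL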
#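 Assay system: Proteasome-bound UCH37. Buffer or medium: pH 7.4 Tris-HCl (50 mM) with ovalbumin, ATP-MgCl2, DTT. Incubation: 30 min preincubation with enzyme, 25 min cleavage at room temperature. Measured by: fluorescence, ex 355 nm, em 460 nm. Read-out basis: percent inhibition. Control set: wells without proteasome as full block, compound-free enzyme plus substrate as uninhibited.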
# rRNA inh HTS: inhibits bacterial ribosomal RNA function over humanized ribosomes | E. coli WT GFP vs humanized-ribosome RFP mutants, fluorescence, 24 h; hits give low values; DMSO median 0, no signal -100 | GFP signal change (wild-type ribosome), % (concentration not given with the values) | hit rate 1.6% among 350,000;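 active = significant combined selectivity score with lowered wild-type GFP, culture density cut under 30%, mutant RFP and density less affected; inactive = any of these conditions unmet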; note: one replicate is shown; some compounds called inactive have numbers as strong as hits
# rRNA inh HTS OD600: further read-out of rRNA inh HTS, marked with its call; OD600 change, %; measured here: OD600 growth;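 optical density of the mix in the first replicate; 0 = DMSO median and -100 = no signal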
# rRNA inh HTS RFP: further read-out of rRNA inh HTS, marked with its call; RFP signal change, %; measured here: RFP humanized mutant strains;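 first replicate; 0 = DMSO median and -100 = no signal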
# Starred values were filed as active, the others as inactive; i = inactive; . = not tested or not shown; & = joins results of further samples. Only part of the results is shown; rates above refer to the full screens.
SMILES,ALR H2O2 inh,B2AR ag,Ecoli growth,FGF22 binding,HNF4A DNA FP,UCH37 DUB inh,rRNA inh HTS,rRNA inh HTS OD600,rRNA inh HTS RFP
COCC1CCN(C(=O)C2CCC(=O)N(C3CCCCCC3)C2)CC1 (configuration not stated),-12,3,0.68,i,2.9,-0.8,4,17,-2.3
Cc1cccc(C=Nc2ccccc2C(N)=O)c1,1,-9,0.61,i,0.0,-390,0,4,-5.4
CN(Cc1ccccc1)S(=O)(=O)c1ccc2[nH]c(=O)ccc2c1,-6,1,0.74,i,3.5,1.6,5,3,-1.0
CCCS/C(N)=N/N=C/c1cc(C)ccc1O,2,3,.,.,3.3,.,.,.,.
C=CCc1ccccc1OCC(O)CN1CCN(c2ccccc2F)CC1 (configuration not stated),3,-14,0.68,.,4.3,3.6,.,.,.
Cc1c(Cl)cccc1NC(=O)Nc1ccc(C(N)=O)cc1,3,1,0.74,.,-3.3,0.6,2,6,-0.4
Cc1c(C(=O)N/N=C/c2ccc(-c3ccccc3[N+](=O)[O-])o2)sc(N)c1C#N,-1,14,.,.,-3.0,.,.,.,.
O=C(CSc1nc2ccccc2c(=O)[nH]1)Nc1cccc([N+](=O)[O-])c1,-2,6,0.74,i,2.1,3.1,-2,4,0.0
COc1ccccc1-c1sc2ccccc2c1-c1ccc(Br)nc1,-4,-4,0.71,i,-1.2,4.7,3,-6,-7.5
O=c1[nH]c2ccccc2nc1-c1ccccc1,.,-20,0.67,i,2.1,-191,13,11,3.7
CCOC(=O)C1(Cc2ccccc2C(F)(F)F)CCN(C(C)COC)CC1 (configuration not stated),-3,17,0.67,i,0.8,1.3,1,-8,0.0
CN(Cc1ccccc1)C(=O)COc1cc(Cl)ccc1Cl,-20,-11,0.67,.,1.2,2.6,.,.,.
CCC(C)[C@H](NC(=O)C1CC(=O)N(c2ccc3c(c2)OCO3)C1)C(=O)NC1CCCCC1 (some centres not stated),-53,1,0.74,i,-7.3,3.1,0,7,-6.6
CS(=O)(=O)N(CC(=O)NCc1ccccc1Cl)c1cccc([N+](=O)[O-])c1,-1,-3,0.62,i,1.1,-0.1,6,2,0.9
COC(=O)[C@]12CCCCC=C1N(Cc1ccc(Cl)cc1Cl)C(=O)[C@H](CC(=O)NCc1ccccc1)C2,.,.,.,i,-6.1,.,-2,12,-2.5
C/C(=N\N=C(/C)c1cccc(N)c1)c1cccc(N)c1,-20,4,.,i,-3.6,.,.,.,.
Cc1cc(C)cc(C(O)c2ncc(-c3ccccc3C(F)(F)F)[nH]2)c1 (configuration not stated),.,.,.,i,0.7,.,-21,-36,-2.2
Brc1cccc(C2CC(c3ccccc3)n3nnnc3N2)c1 (configuration not stated),.,-2,0.68,.,-0.9,3.4,.,.,.
CCN(CC)C(=O)C1=C(C)N(CCCOC)C(=O)C(CC(=O)NCCc2ccccn2)C1 (configuration not stated),.,.,.,i,2.0,.,12,7,5.8
CCN1C(=O)/C(=C\c2nc3ccccc3c(=O)n2-c2ccccc2)c2ccccc21,66,3,0.69,i,-0.5,7.4,8,6,4.3
CCOC(=O)C1(C)CCN1C(=O)c1ccc(-c2ccccc2)cc1 (configuration not stated),.,.,.,i,-0.5,.,-9,-24,-0.4
COc1ccc(C(=O)C2CCCN(C(=O)Cn3nc(C)cc3C)C2)cc1F (configuration not stated),-29,-8,0.69,i,4.1,3.7,7,1,-0.1
C=CCNC(=O)c1ccc(-c2nc(-c3ccc(Cl)cc3Cl)cs2)cc1,17,-9,0.75,.,-1.7,2.1,.,.,.
CCn1c(CSc2nc3ccccc3s2)nnc1SCC(N)=O,-9,-2,0.65,.,-3.0,0.5,.,.,.
O=[N+]([O-])c1ccc(S(=O)(=O)N2CCN(C3CCN(Cc4ccccc4)CC3)CC2)cc1,-37,3,0.73,i,4.1,0.5,4,14,-3.2

# Looked up above:
# Value of O=[N+]([O-])c1ccc(S(=O)(=O)N2CCN(C3CCN(Cc4ccccc4)CC3)CC2)cc1 under rRNA inh HTS RFP: -3.2
# Value of Cc1c(C(=O)N/N=C/c2ccc(-c3ccccc3[N+](=O)[O-])o2)sc(N)c1C#N under HNF4A DNA FP: -3.0
# Value of CN(Cc1ccccc1)C(=O)COc1cc(Cl)ccc1Cl under Ecoli growth: 0.67

# (further entries)
SMILES,ALR H2O2 inh,B2AR ag,Ecoli growth,FGF22 binding,HNF4A DNA FP,UCH37 DUB inh,rRNA inh HTS,rRNA inh HTS OD600,rRNA inh HTS RFP
COc1ccc(NS(=O)(=O)c2cccc(NC(=O)c3cnccn3)c2)cc1Br,0,10,.,i,3.2,.,-17,-14,1.2
CC(=O)N1CCCN(Cc2nc(C3(c4ccc(C)cc4)CCCC3)no2)CC1,5,2,0.71,i,3.3,1.2,-1,-2,-1.8
CCCCCNC(=O)c1c[nH]c2ccc(S(=O)(=O)N3CCC4(CC3)OCCO4)cc2c1=O,-4,-6,0.68,i,4.2,0.9,7,18,3.9
COc1ccc(NC(C)=O)cc1C#N,.,-1,0.64,i,-2.0,-2.1,7,4,-0.1
O=C(Nc1ccnn1C1CCN(Cc2cccnc2)CC1)c1ccccc1Cl,-1,-13,0.7,i,2.0,-1.9,1,7,-0.3
CC(C)c1onc(C(=O)N2CCN(C(c3ccccc3)c3ccccc3)CC2)c1[N+](=O)[O-],-4,14,0.74,i,-0.9,4.0,11,8,-2.3
CCOC(=O)C1CCCN1C(=O)c1ccc(OC)c(Br)c1 (configuration not stated),-4,-1,0.69,i,2.6,-1.5,10,4,3.5
O=C(Nc1cccc(-c2nc3ccccc3s2)c1)c1cccs1,-2,52*,0.69,.,-1.4,3.4,.,.,.
CSCC(=O)NC1CCCN(C2Cc3ccccc3C2)C1 (configuration not stated),-54,-6,0.64,i,2.2,2.9,9,10,1.7
CSc1ncnc2c1ncn2CCCNCC1CCCO1 (configuration not stated),.,.,.,i,-6.3,.,13,10,5.1
C[C@@H]1CN([C@@H](C)CO)C(=O)CCCn2nncc2CO[C@@H]1CN(C)S(=O)(=O)c1ccc(Oc2ccccc2)cc1,.,.,.,i,0.5,.,-5&-1,-12&-40,2.1&9.6
O=C(COC(=O)CCc1nc2ccccc2c(=O)[nH]1)NC(c1ccccc1)c1ccccc1,-4,5,0.71,i,2.9,0.8,10,4,-0.9
O=[N+]([O-])c1ccc(-n2nnnc2CN2CCCCC2)cc1,-10,-2,0.74,i,-2.7,2.6,12,14,1.5
CCOC(=O)CCSc1nnc(-c2cccnc2)n1-c1ccccc1OC,-5,3,0.69,.,-0.6,2.5,.,.,.
O=C(Nc1ncccc1O)c1ccc(S(=O)(=O)NCc2ccco2)cc1,.,.,.,i,0.1,.,6,-5,-2.6
NNC(=O)Cn1c(-c2ccccc2)cc(=O)n2ncnc12,.,-4,0.66,i,2.3,3.9,0,11,0.9
Cc1ccc(C(=O)C2=C(O)C(=O)N(CC3CCCO3)C2c2ccccc2F)o1 (configuration not stated),4,1,0.66,i,-4.8,4.7,-1,1,-2.2
O=C(CCNc1ccc(F)cc1)c1cc2ccccc2o1,59,-3,.,i,4.1,.,2,10,1.0
Cn1c(N)c(C(=O)COC(=O)/C=C/c2ccccc2F)c(=O)n(C)c1=O,25,-2,0.66,.,3.2,-3.1,2,-5,4.8
CC1(C)CC(=O)C(C(C2=C(O)CC(C)(C)CC2=O)c2ccc(Br)s2)C(=O)C1 (configuration not stated),98*,22,0.66,i,-3.5,3.6,-12,-7,6.7
CCCCN(CC)CCCNC(=S)Nc1ccc2nc3n(c(=O)c2c1)CCCCC3,3,0,0.65,i,1.3,-1.4,6,14,-3.1
CNS(=O)(=O)c1ccc(CNC[C@H]2O[C@@H](n3cnc(C(N)=O)n3)[C@H](O)[C@@H]2O)cc1,.,-5,.,i,1.7,.,9,14,-3.5
Cc1cc(C)c(OCCN2CC(C)OC(C)C2)c(Br)c1 (configuration not stated),0,7,0.67,i,-3.3,6.6,-12,-8,1.9
COc1ccc(CNC(=O)c2ccc(C(C)C)cc2)cc1,-7,-4,0.64,i,2.5,-0.4,1,-2,-1.9
Cc1cc(C)n(-c2cc(C(C)(C)C)nc3c(-c4ccccc4)cnn23)n1,.,-2,0.64,i,-0.5,-0.8,5,1,-1.6

# Ordered by length of the SMILES (rising): some entries from above.
SMILES,ALR H2O2 inh,B2AR ag,Ecoli growth,FGF22 binding,HNF4A DNA FP,UCH37 DUB inh,rRNA inh HTS,rRNA inh HTS OD600,rRNA inh HTS RFP
CSCC(=O)NC1CCCN(C2Cc3ccccc3C2)C1 (configuration not stated),-54,-6,0.64,i,2.2,2.9,9,10,1.7
NNC(=O)Cn1c(-c2ccccc2)cc(=O)n2ncnc12,.,-4,0.66,i,2.3,3.9,0,11,0.9
CCOC(=O)CCSc1nnc(-c2cccnc2)n1-c1ccccc1OC,-5,3,0.69,.,-0.6,2.5,.,.,.

# Next structures
SMILES,ALR H2O2 inh,B2AR ag,Ecoli growth,FGF22 binding,HNF4A DNA FP,UCH37 DUB inh,rRNA inh HTS,rRNA inh HTS OD600,rRNA inh HTS RFP
COC(C(=O)Nc1ccnn1C1CCN(C(=O)c2cccc(F)c2)CC1)c1ccccc1 (configuration not stated),-3,6,0.66,i,1.1,0.7,8,6,-1.0
COc1ccc(NC(=O)c2ccc(NCCCN3CCOCC3)c([N+](=O)[O-])c2)cc1,-8,3,0.71,i,-0.3,4.8,-7,-4,4.2
COc1ccc(NC(=O)/C=C/c2cc(OC)c(OC)c(OC)c2)cn1,-8,-1,0.72,i,-2.8,3.6,-2,8,-0.2
COCCNC(=O)Cn1cnc2sc(C)c(S(=O)(=O)N3CCN(c4ccccc4OC)CC3)c2c1=O,-1,-1,0.69,i,1.4,-0.4,8,12,-2.2
COC(=O)Nc1snnc1C,-8,-6,0.77,.,-2.4,2.0,.,.,.
Cc1ccccc1CC1(CO)CCCN(C(=O)c2ccc(F)cc2)C1 (configuration not stated),-4,0,0.7,i,-9.5,2.6,-9,-7,2.9
CCN1CCN(c2cc(=O)n(Cc3ccc(F)cc3)c(=O)[nH]2)CC1,26,7,0.7,i,0.3,4.3,9,1,-2.2
CCC(C(=O)NC1CCCC1)N(C(=O)Cn1nnc(-c2cccs2)n1)c1cnc2ccccc2c1 (configuration not stated),.,-18,0.75,.,2.2,2.5,.,.,.
O=C(NCC1CCCO1)C1CCN(S(=O)(=O)c2cccnc2)CC1 (configuration not stated),.,-4,0.67,.,-1.1,2.3,.,.,.
O=C(O)/C=C\C(=O)Nc1ccc(OCc2ccccc2)cc1,15,4,0.63,i,3.2,3.0,-10,6,-1.3
CN(CC(=O)Nc1ccc(F)cc1)C(=O)CSc1nnc(Cc2ccccc2)o1,.,-1,0.71,i,0.8,0.4,1,-6,0.2
COc1cccc(CN(C)S(=O)(=O)c2ccc3c(c2)OCCO3)c1,.,3,0.65,i,-0.3,2.5,-11,-28,-0.2

# Entries of single compounds from above. Screens in order: ALR H2O2 inh	B2AR ag	Ecoli growth	FGF22 binding	HNF4A DNA FP	UCH37 DUB inh	rRNA inh HTS	rRNA inh HTS OD600	rRNA inh HTS RFP
# COc1ccc(NC(=O)/C=C/c2cc(OC)c(OC)c(OC)c2)cn1 in the list: -8	-1	0.72	i	-2.8	3.6	-2	8	-0.2
# CCN1CCN(c2cc(=O)n(Cc3ccc(F)cc3)c(=O)[nH]2)CC1 in the list: 26	7	0.7	i	0.3	4.3	9	1	-2.2
# CCC(C(=O)NC1CCCC1)N(C(=O)Cn1nnc(-c2cccs2)n1)c1cnc2ccccc2c1 (configuration not stated) in the list: .	-18	0.75	.	2.2	2.5	.	.	.

# Compound activity: PubChem, several laboratories
